Screens (PubChem BioAssay)
Calb FLC: C. albicans growth inhibition with fluconazole, primary screen, CaCi-2 strain, Alamar Blue fluorescence | C. albicans CaCi-2 (fluconazole-resistant clinical isolate) + fluconazole, 48 h | growth inhibition, % (test concentration not listed) | 300,000 tested, 0.57% active | AID 1979, 2009;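 active means most replicates above 75%; inconclusive means exactly half above 75%; inactive means most below 75%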;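 further: all wells also contain fluconazole at 8 µg/ml as a sub-toxic cotreatment; 0% = median of DMSO wells and 100% = median of geldanamycin control wells; wells of about 8 µL received 7.5 nL stock; the first replicate is given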
RanGTP-Imp inh: inhibitors of RanGTP-importin-beta interaction, primary screen, biochemical, FRET, CFP-Ran, YFP-importin-beta, homogeneous; cell-free CFP-Ran/YFP-importin-beta FRET ratio; inhibition, % (concentration not given with the values); 300,000 tested, 1.1% active; AID 2216, 2009;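 active means most replicates above 15%; inconclusive means exactly half above 15%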;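 further: 0% = DMSO wells and 100% = Ran loaded with GDP instead of GTP; wells of about 40 µL received 100 nL stock; the first replicate is given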
Beta2AR agonist: beta2AR agonists driving receptor internalization, primary screen, cell-based, FAP fluorogen, flow cytometry; Am2.2-beta2AR cells; reference of the scale not given here; response, % (no concentration beside the values); 340,000 tested, 0.43% active; Beta-2 adrenergic receptor (Homo sapiens), P07550; AID 504454, 2011;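 active means response above a set limit, near 3 SD of response in nonfluorescent compounds, cut at about 42% in these data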;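 further: stock transfer was 100 nL into about 11 µL; a reference agonist was the positive control; negative values mostly stem from fluorescent compounds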
Target sequence (P07550 whole entry, looked up): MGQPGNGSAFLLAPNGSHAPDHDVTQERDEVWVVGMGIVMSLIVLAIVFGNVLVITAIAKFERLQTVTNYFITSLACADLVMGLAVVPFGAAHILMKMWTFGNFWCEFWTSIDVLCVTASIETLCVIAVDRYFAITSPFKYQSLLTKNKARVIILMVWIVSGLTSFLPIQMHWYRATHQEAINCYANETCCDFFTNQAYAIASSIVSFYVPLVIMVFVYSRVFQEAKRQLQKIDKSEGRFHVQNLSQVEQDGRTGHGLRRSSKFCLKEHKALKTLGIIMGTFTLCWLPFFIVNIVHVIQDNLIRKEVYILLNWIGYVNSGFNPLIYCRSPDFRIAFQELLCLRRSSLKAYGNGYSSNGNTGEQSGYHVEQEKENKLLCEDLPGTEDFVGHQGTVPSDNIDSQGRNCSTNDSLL
T cruzi repl: inhibitors of intracellular T. cruzi growth, primary screen, luminescence, NIH3T3 host cells; T. cruzi beta-gal in NIH3T3, 90 h; inhibition, % (concentration not given with the values); 300,000 tested, 1.4% active; AID 1885, 2009;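 active means mean inhibition across valid replicates above about 55%, limit read from the data; inconclusive means mean below that limit but half or more replicates reach it; inactive means mean below it, under half of replicates reach it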;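 further: signal also drops with host cell toxicity which is not excluded here; 0% = plate median of DMSO wells and 100% = zero luminescence signal; higher percent means less beta-gal luminescence so fewer parasites; stock transfer was 50 nL into about 50 µL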
Beta cell apopt: inhibitors of cytokine-induced beta cell apoptosis, primary screen, luminescence; protection from apoptosis, % (test concentration not listed); 300,000 tested, 0.8% active; INS-1E cytokine-induced death, ATP luminescence, 48 h; percent of positive-control rescue, neutral wells zero;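 active means all replicates at 75% or more, or half of them and the mean; inconclusive means half reach 75% but not the mean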;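 further: 0% = cytokine-treated negative control wells and 100% = positive control rescue; higher means more ATP so stronger rescue from cytokine killing; wells of about 40 µL received 100 nL stock; the first replicate is given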
UCH37 inh: inhibitors of human UCH37 deubiquitinase, primary screen, biochemical, Ub-AMC cleavage, fluorescence; Ubiquitin carboxyl-terminal hydrolase isozyme L5 (Homo sapiens), Q9Y5K5; purified proteasome/UCH37; inhibition, % (concentration not given with the values); 330,000 tested, 0.33% active; AID 588478, 2011;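 active means mean of two replicates above 20%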;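 further: 0% = compound-free wells with enzyme and 100% = wells lacking proteasome; stock transfer was 100 nL into about 20 µL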
Target sequence (Q9Y5K5 whole entry, looked up): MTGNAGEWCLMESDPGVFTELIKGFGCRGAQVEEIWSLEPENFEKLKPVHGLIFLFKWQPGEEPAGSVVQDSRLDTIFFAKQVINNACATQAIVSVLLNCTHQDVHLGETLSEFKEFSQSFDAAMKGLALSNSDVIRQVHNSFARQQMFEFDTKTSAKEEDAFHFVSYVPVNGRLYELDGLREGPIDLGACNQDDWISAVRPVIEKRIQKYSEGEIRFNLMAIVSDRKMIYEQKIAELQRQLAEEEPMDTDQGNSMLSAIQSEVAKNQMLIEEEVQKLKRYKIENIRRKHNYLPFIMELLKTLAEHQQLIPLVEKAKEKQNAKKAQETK
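system = Proteasome-associated human UCH37 deubiquitinase | amount = 0.15 nM proteasome as dispensed | medium = pH 7.4 Tris-HCl (50 mM) with ovalbumin, ATP-MgCl2, DTT | incubation = 30 min preincubation with enzyme, 25 min cleavage at room temperature | detection = AMC fluorescence 355/460 nm | read-out basis = percent inhibition | controls = no-proteasome and no-compound wells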
LANA-H2B inh: blockers of LANA interaction with H2A/H2B – biochemical, FP readout, HTS, primary screen; inhibition, % (concentration not given with the values); 320,000 tested, 0.6% active; cell-free LANA-H2A/H2B peptide, fluorescence polarization; Protein LANA1 (Human herpesvirus 8 type P (isolate GK18)), Q9QR71; in the data active means inhibition mostly above about 10%, no sharp cut-off; inactive means mostly below about 6.7%;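 further: stock transfer was 7.5 nL into about 10 µL; 0% = median of vehicle wells and 100% = median of positive control wells; one replicate is shown; the record names a cut of 25% in any replicate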
A1 inh: caspase 3/7 activation in MEF A1-2A-BIM cells, primary screen, A1 inhibitor project, cell-based, luminescence, HTS; 330,000 tested, 0.066% active; Caspase-Glo 3/7 luminescence, 3 h; percent of clofoctol response, vehicle zero; AID 2462, 2010; caspase activation, % (test concentration not listed);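 active means over half of replicate activation scores above 10%, or exactly half above 10 with the replicate mean above 10; inconclusive means replicate mean below 10 yet half the replicates above 10; inactive means over half of replicates below 10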;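 further: wells of about 30 µL received 50 nL stock; many hits fall short of the cut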
Numbers without * were called inactive; ? = inconclusive; . = no result given; ! = not active in a repeat.

entry	SMILES	A1 inh	RanGTP-Imp inh	Calb FLC	UCH37 inh	T cruzi repl	LANA-H2B inh	Beta2AR agonist	Beta cell apopt
1	COc1ccccc1N1CCN(c2ccc([N+](=O)[O-])nc2)CC1	0.3	1.1	-15	6.6	-7	1.1	4	1
2	COc1ccc(OC)c(S(=O)(=O)NCCc2cn3ccsc3n2)c1	-0.6	3.6	13	3.8	-18	1.0	25	-4
3	Cc1ccc2c(c1)N(CC(=O)NC1CCCCC1C)C(=O)CO2 (stereo not given)	-0.3	1.8	-15	2.3	-16	-1.3	0	-1
4	Cc1ccc(S(=O)(=O)N2CCCOC2)cc1	0.7	-1.2	-5	0.5	1	2.5	6	-1
5	c1cc2[nH]snc2c2nc(C3CC3)nc12	-0.9	-3.3	23	1.9	-9	0.7	36	-6
6	CCOc1cccc2c1OC1(C)CC2NC(=O)N1c1cccc(C(=O)NCc2ccccn2)c1 (stereo not given)	0.4	24	9	3.9	-3	-2.5	1	-5
7	C=CCNC(=S)Nc1nc2c(cc1C(=O)OCC)COC(C)(C)C2	0.5	?	-6	2.9	2	-4.2	5	3
8	Cc1cccc(OCC(=O)Nc2ccc3oc(=O)ccc3c2)c1	-0.6	1.7	-1	-20	-9	-3.9	0	-1
9	COc1ccc(NS(=O)(=O)/C=C/c2ccccc2)cc1	-0.1	-0.3	-16	-2.8	-21	-1.2	-2	.
10	Cn1c2ccccc2c(=O)c2c(=O)n(C3CCCCCC3)c(C3CCCCC3)nc21	.	1.8	11	.	18	.	5	.
11	Cc1oc2c(c1C(=O)Nc1cccc(C(=O)O)c1)CCCC2	0.8	3.6	.	-0.9	-19	-5.6	-2	-3
12	O=c1c2c3c(sc2nc2sc(C4CC4)nn12)CCCC3	-1.3	-0.3	-4	0.4	8	1.1	-6	4
13	CC(C)Oc1ccc(CNC(=O)Cn2c(=O)oc3ccccc32)cc1	0.5	8.0	-8	8.8	-3	2.1	-10	3
14	CCCC(=O)Nc1nc(C(=O)OCC)cs1	0.1	-4.2	5	2.9	-6	8.3	-6	.
15	Oc1ccc(/C=N/N(c2ccccc2)c2ccccc2)cc1O	1.3	-1.5	37	.	-5	-0.7	7	6
16	Cc1ccc2c(N)c(C(=O)c3ccccc3)sc2n1	-1.2	1.9	-2	1.0	29	-0.4	4	8
17	O=C(COc1ccc(-n2cnnn2)cc1)N1CCN(c2ccc(F)cc2)CC1	1.1	-0.8	11	3.1	5	-1.3	6	6
18	COc1ccc(NC(=O)COc2ccc(S(=O)(=O)N3CCOCC3)cc2C)cc1OC	-0.9	-1.8	13	3.2	8	1.1	5	0
19	CCOC(=O)/C(=C\C=C\N1CCOCC1)C(C)=O	1.1	?	5	3.3	-8	-1.8	-1	-1
20	CC(=O)c1ccc(NC(=O)C(C)OC(=O)c2ccc3c(c2)nc(C)n3-c2ccccc2)cc1 (stereo not given)	-0.5	-0.8	-12	-0.5	-5	-6.0	-7	3
21	Cc1cc2[nH]c(=S)[nH]c2cc1C	-0.1	-0.8	11	-1.2	2	0.3	11	-4
22	CCn1c(CNS(=O)(=O)c2ccc(Cl)cc2)n[nH]c1=S	0.8	-3.0	-11	1.4	-12	2.4	1	-4
23	CCCCN(Cc1nc2ccccc2c(=O)[nH]1)C(=O)CN1C(=O)NC2(CCCCC2)C1=O	0.1	.	.	0.0	.	3.0	1	-3
24	COc1ccccc1NC(=O)c1cc(C)nc2ccccc12	0.2	-7.5	31	3.7	-15	3.8	2	2
25	COCCCNC(=O)C1CC(=O)N(C2CCCC2)C1 (stereo not given)	-0.4	7.5	-1	2.0	-20	-7.1	0	-5
26	Cc1nc2cc(-c3ccc(Cl)cc3)nn2c(C)c1CCC(=O)NC(C)c1ccc2c(c1)OCCO2 (stereo not given)	-0.6	-0.3	6	-17	28	-4.0	-32	10
27	COc1ccccc1Nc1n[nH]c(=S)s1	-1.4	1.8	1	6.4	-11	.	-5	-1
28	O=C(COC(=O)c1cccc(S(=O)(=O)N2CCOCC2)c1)NCc1ccccc1	1.1	.	.	0.6	.	0.7	-4	1
29	O=C(O)c1cc(O)c2c(c1)[C@@H]([C@H]1c3cc(C(=O)O)cc(O)c3C(=O)c3c(O[C@@H]4O[C@H](CO)[C@@H](O)[C@H](O)[C@H]4O)cccc31)c1cccc(O[C@@H]3O[C@H](CO)[C@@H](O)[C@H](O)[C@H]3O)c1C2=O	0.6	.	.	2.7	.	15	.	12
30	O=C(O[C@@H](C(=O)O)[C@@H](OC(=O)c1ccccc1)C(=O)O)c1ccccc1	-0.5	.	.	-0.6	.	-205	-9	0
31	Cc1ccc2nc(-c3ccc(NC(=O)COC(=O)c4ccc(Br)o4)cc3)sc2c1	-4.2	.	.	-13	.	1.9	5	-4
32	N#Cc1cnn2ccc(-c3cc(N4CCOCC4)ccc3[N+](=O)[O-])nc12	0.8	-0.5	-25	6.9	8	3.1	-8	-8
33	COc1cccc(NC(=O)C2C3CC4OC(=O)C2C4C3)c1 (stereo not given)	0.6	3.0	0	1.4	-4	-1.6	1	-3
34	OCCCNc1nc(-c2ccc(Cl)cc2)nnc1-c1ccc(Br)cc1	-0.2	2.4	-5	3.7	27	-4.3	-6	2
35	O=C(NCC(=O)N(c1ccc(Cl)cc1)C(C(=O)NC1CCCC1)c1ccncc1)c1ccco1 (stereo not given)	-0.1	10	-9	2.7	-9	2.2	2	-9
36	CN(C)S(=O)(=O)c1ccc(Cl)c(C(=O)Nc2cccc3ncccc23)c1	0.4	-3.1	-3	-1.9	-5	2.0	-26	-5
37	CC(=O)c1ccc(OCC(=O)OC(C)C(=O)NC2CCCCC2)cc1 (stereo not given)	0.5	.	.	1.0	.	3.6	7	-4
38	CC(C)CCOCC(=O)Nc1cccc(C(=O)O)c1	-5.3	4.9	5	-0.3	-13	-0.1	6	2
39	COc1cccc(-c2nnc(SCC(=O)N(C(C)C)C(C)C)o2)c1	-0.5	-2.7	?	1.9	10	-5.6	0	-2
40	Cc1cc(C(=O)COC(=O)c2n[nH]c3ccccc23)c(C)n1C	-5.5	3.6	7	3.1	-1	-7.8	-10	1
41	CS(=O)(=O)c1sc(C(=O)NC(=S)Nc2ccc(OC(F)(F)F)cc2)c2c1C=CCC2	-0.3	3.5	2	2.9	2	-2.6	3	-5
42	Cc1ccc(CS(=O)(=O)Cc2ccc(C(=O)NCc3ccco3)o2)cc1	0.3	-2.6	-6	-2.0	-3	2.9	-3	-3
43	COC(=O)c1cc(NC(=O)CC2SCCNC2=O)cc(C(=O)OC)c1 (stereo not given)	-0.2	0.0	-9	2.3	-2	3.9	3	2
44	O=C(NCC(O)CO)c1ccc2[nH]c3ccccc3c2c1 (stereo not given)	-0.1	8.5	6	-19	-16	0.6	-4	-5
45	Cc1ccc(NC(=S)N2CCCC2)cc1Cl	1.1	.	14	1.5	.	0.9	2	0
46	CCc1nn(C(C)C(=O)N2CCN(c3ccccc3)CC2)c(=O)c2cc3occc3n12 (stereo not given)	0.5	3.1	13	3.5	19	-2.6	-4	-8
47	O=C(CSc1ncn[nH]1)NCc1ccc2c(c1)OCO2	0.6	2.3	-2	-1.0	3	2.8	0	1
48	CCOC(=O)N/N=C/c1ccc(OCCSc2ccc(Cl)cc2)c(OCC)c1	0.1	3.7	?	.	35	0.7	-3	0
49	CCn1nnc2sc3c(c2c1=O)CCC(C)C3 (stereo not given)	-0.2	-1.0	1	-32	7	3.3	-7	1
50	Cc1ccc(S(=O)(=O)NC2=NCN(C)CN2)cc1[N+](=O)[O-]	0.6	-0.8	0	-0.4	5	-3.8	4	-5

Remaining list, next part
entry	SMILES	A1 inh	RanGTP-Imp inh	Calb FLC	UCH37 inh	T cruzi repl	LANA-H2B inh	Beta2AR agonist	Beta cell apopt
51	O=C(CCl)Oc1ccc2occ(C(=O)c3cccs3)c2c1	-7.8	?	8	3.7	-6	-1.8	-4	-2
52	CSc1nnc2ccc(-c3ccc(C)cc3)nn12	0.4	-0.4	-5	-15	2	3.0	5	-2
53	CCC(=O)c1ccc(OCC(O)CN2CCCCC2)cc1 (stereo not given)	0.6	3.2	27	2.3	-3	1.9	-3	0
54	NC(=O)COC(=O)CSc1ccc2ccccc2c1	-0.2	4.1	8	0.0	-17	-2.7	1	-7
55	Cc1ccccc1C1CCCN(Cc2nc(C3CC3)no2)C1 (stereo not given)	0.5	0.4	12	1.3	10	1.3	-8	2
56	CCCCCCCCC(=O)NCCOc1ccc(OC)cc1	0.0	-3.1	0	1.9	-8	.	-5	-6
57	CCOc1cc(CNCc2ccccn2)ccc1OCC(=O)NC1CCCCC1	0.6	0.8	-1	-3.2	1	-0.3	10	4
58	CN(CCCNC(=O)CSc1cc(=O)n(C)c2cc(Cl)ccc12)Cc1ccccc1	0.3	-2.5	-10	3.3	41	0.2	-3	-3
59	CCN(CCO)Cc1cc(=O)oc2cc3c(cc12)CCC3	0.3	1.1	0	1.8	-8	1.3	-5	-19
60	O=C(CSc1cccc[n+]1[O-])NC1CCCCCCC1	1.4	-2.8	5	-0.4	-18	0.5	-1	-3
61	CCn1c(COc2ccccc2OC)nnc1SCC(=O)NC1CCCC1	0.0	5.0	2	2.7	-3	-2.9	1	-5
62	O=C(Cc1ccc(F)cc1)NCCS(=O)(=O)N1CCN(c2cccc(Cl)c2)CC1	0.6	5.9	4	0.8	-9	-1.7	2	2
63	COc1cccc(NC(=O)C2CC(=O)N=C(N)S2)c1 (stereo not given)	0.6	-2.5	-2	6.1	-5	1.2	-2	-1
64	O=C(CN1CCN(C(=O)c2ccco2)CC1)Nc1ccccc1	-0.5	?	-7	2.0	-3	2.0	17	3
65	O=C(CSc1ccc(F)cc1)Nc1ccccc1Br	-0.1	1.9	-2	0.9	-9	3.8	2	-5
66	O=C(CSc1nc(C2CC2)nc2ccccc12)N1CCCCC1	-0.3	11	16	3.1	2	-1.3	-7	-4
67	Cc1ccc(-n2cc(CNCCN3CCOC3=O)c(-c3cccc(C)c3)n2)cc1	0.6	1.6	-19	0.3	-7	-1.6	10	-3
68	O=C(CCS(=O)(=O)Cc1ccccc1)NCc1ccco1	0.8	2.5	37	0.7	-17	-1.5	-5	-1
69	C=CCOC(=O)C1=C(C)NC(SCC(=O)NC(=O)OCC)=C(C#N)C1c1cccnc1 (stereo not given)	-0.4	-3.7	99*	-46	0	4.7	57*!	-1
70	CCC(CC)N1CCN(C(=O)c2cc(OC)c(OC)c(OC)c2)CC1	0.6	4.3	-10	-2.1	-13	1.3	-3	0
71	COc1ccc(N2CC(C(=O)N3CCC(c4nc5ccccc5[nH]4)CC3)CC2=O)cc1 (stereo not given)	-0.1	2.1	7	1.4	-3	.	-4	-3
